BJeLR lethal: kills HRASV12-expressing BJeLR cells | BJeLR (HRASV12) viability, CellTiter-Glo ATP luminescence, 48 h; reference of the scale not given here | inhibition, % (concentration not given with the values) | 300,000 compounds, 0.17% hits | AID 1554;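 active = replicate mean above 50%; inconclusive = above 50% but judged a plate artefact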;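 also: 50 nL library stock added to about 25 µL; numbers are from one replicate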
ugtP null kill: compounds lethal to S. aureus RN4220 ugtP deletion mutant; OD600 growth, 16 h; some inactives read as strong as hits; growth inhibition, % (concentration not given with the values); 330,000 compounds, 0.54% hits; AID 1259309;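 active = z-score under -3 and OD600 up to 0.15 on both plates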;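 also: plate controls were untreated wells for no effect and antibiotic for full effect; wells of about 80 µL received 100 nL stock; the first replicate is given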
RN4220 kill: S. aureus RN4220 growth inhibition | OD600, 16 h | inhibition, % (concentration not given with the values) | 330,000 compounds, 0.33% hits | AID 1259311;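 active = z-score of -3 or lower and OD600 up to 0.18 on both plates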;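 also: plate controls were untreated cells for no effect and reference antibiotic for full effect; stock transfer was 100 nL into about 80 µL; one replicate is shown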
PrP UTR inh: inhibition of PrP 5' UTR reporter expression | cell-based PrP 5' UTR mRNA reporter, plate reader | inhibition, % (test concentration not listed) | 340,000 compounds, 0.35% hits | AID 488862;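 active = every replicate at 50% or more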;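 also: 0 = median of the neutral control wells; tested in H4 reporter cells; numbers are from one replicate; inactives centre near -14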
Bead autofluor: counter-screen for toxin protease inhibitors: compound fluorescence; compound autofluorescence counterscreen, microsphere flow cytometry; stronger effect = higher value; fluorescence intensity (test concentration not listed); 360,000 compounds, 3.1% hits; AID 624483;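 active = at least 3 SD above the mean of all compounds, about 16000 in these data; inconclusive = too few beads counted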;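 also: 100 nL of 1 mM stock went into each well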
Mtb hypoxia rep: reduces hypoxia-regulated biosensor signal in M. tuberculosis; M. tuberculosis hypoxia-regulated fluorescent reporter, fluorescence; fluorescence inhibition, % (no concentration beside the values); 300,000 compounds, 0.1% hits; AID 1159583;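 active = 35 to 45% if threefold the growth effect, above 45% if 1.5-fold the growth effect; inactive = the rest, general growth blockers included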;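 also: wells of about 50 µL received 100 nL stock; 0% = vehicle wells and 100% = reference inhibitor wells; whole bacteria with a GFP reporter of the hypoxia response; strong numbers were not always called active; many hits fall short of the cut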
Mtb hypoxia rep growth: second read-out of Mtb hypoxia rep, no call of its own (marks repeat the call); growth inhibition, %; measured here: M. tuberculosis growth (absorbance);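 0% = vehicle and 100% = reference antibiotic; read after six days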
Numbers without * were called inactive; ? = inconclusive; . = no result given.

Screens by letter – A = BJeLR lethal; B = ugtP null kill; C = RN4220 kill; D = PrP UTR inh; E = Bead autofluor; F = Mtb hypoxia rep; G = Mtb hypoxia rep growth
COc1ccc(/C=C/C(=O)NC2CCN(Cc3ccccc3)CC2)cc1OC
  A: -10 | B: 2 | C: -2.0 | D: -10 | E: 3819 | F: -4 | G: 7

O=C(CCC(=O)c1ccc(Oc2ccccc2)cc1)Nc1cccc(Cl)c1Cl
  A: -8 | B: 38 | C: -5.0 | D: -39 | E: 2783 | F: -14 | G: -4

O=C(COC(=O)CNC(=O)c1ccc(Cl)c([N+](=O)[O-])c1)NC(=O)c1ccccc1
  A: 5 | B: -1 | C: -1.9 | D: -6 | E: 6072 | F: -5 | G: -2

CC(=O)N1N=C(c2ccncc2)OC12CCCCC2
  A: 2 | B: 0 | C: 8.0 | D: -11 | E: 3400 | F: 4 | G: 0

Cc1cc(C)n2nc(C(F)(F)F)c(-c3ccccc3)c2n1
  A: 2 | B: 12 | C: 8.7 | D: -9 | E: 4749 | F: 12 | G: 3

O=C(Nc1ccc(NC(=O)c2ccc(Cl)c(S(=O)(=O)N3CCOCC3)c2)cc1)c1ccccc1
  A: 4 | B: -3 | C: 4.2 | D: -3 | E: 5381 | F: -3 | G: 5

Cc1cc2oc(=O)cc(C)c2c(=O)o1
  A: -1 | B: 0 | C: -3.7 | D: -47 | E: 2598 | F: . | G: .

CCOc1ccc(C(CC(=O)O)n2cnnn2)cc1 (configuration not stated)
  A: -2 | B: 6 | C: -0.3 | D: -33 | E: 4560 | F: 1 | G: 6

COc1ccc(N2CCN(C(=O)C3CCCN3S(=O)(=O)c3cccc4nsnc34)CC2)cc1 (configuration not stated)
  A: 0 | B: 1 | C: 0.1 | D: -8 | E: 6166 | F: -10 | G: -9

Cc1cccc(C(=O)NC(Oc2ccccc2)C(Cl)(Cl)Cl)c1 (configuration not stated)
  A: -20 | B: -3 | C: 18 | D: 7 | E: 7052 | F: 4 | G: 3

Cc1cc(C)cc(NC(=O)c2nccnc2C(=O)O)c1
  A: 7 | B: 11 | C: 3.5 | D: -4 | E: 5966 | F: 1 | G: 4

CCN(CC)CCCNC(=O)C1CCC(CNS(=O)(=O)c2ccc(Cl)cc2)CC1 (configuration not stated)
  A: 9 | B: -1 | C: 0.6 | D: -27 | E: 4159 | F: -7 | G: 8

CN(C)CCCNC(=O)c1ccc(CN(c2ccccc2)S(C)(=O)=O)cc1
  A: 3 | B: -2 | C: 3.9 | D: -30 | E: 2971 | F: 7 | G: 9

Cc1cnc(NC(=O)CSc2nc3ccccc3s2)s1
  A: -3 | B: 0 | C: 8.9 | D: -23 | E: 4428 | F: 10 | G: 12

CN(C)CCOc1nc(-c2ccccc2)nc2c1oc1ccccc12
  A: 15 | B: 0 | C: 1.8 | D: -51 | E: 3195 | F: 41* | G: 15*

COc1cccc(NC(=O)CN(C)C(=O)c2ccccc2CCc2ccccc2)c1
  A: 6 | B: -5 | C: 1.6 | D: -16 | E: 6113 | F: 0 | G: -2

O=C1CCC(=O)N1c1ccc(CSc2nc3ccccc3[nH]2)cc1
  A: 1 | B: 5 | C: 3.0 | D: -38 | E: 9514 | F: 10 | G: 6

COc1cc(/C=C2/SC(=O)N(CC(=O)N3CCCC3)C2=O)ccc1Oc1ccc([N+](=O)[O-])cn1
  A: 14 | B: -11 | C: -3.0 | D: 2 | E: . | F: 3 | G: -5

Cc1ccc(S(=O)(=O)N2CCCCC2)cc1C(=O)N(C)CC(=O)Nc1cccc(F)c1
  A: 0 | B: -2 | C: 1.7 | D: -2 | E: ? | F: 0 | G: -7

CC(=O)N1CCc2cc(S(=O)(=O)NC(C(=O)NC3CCCc4ccccc43)C(C)C)ccc21 (configuration not stated)
  A: 5 | B: 2 | C: 2.9 | D: -3 | E: 4577 | F: . | G: .

FC(F)C(F)(F)C1=CC(c2cccs2)=NCCN1
  A: -3 | B: 2 | C: -1.2 | D: -10 | E: 4805 | F: -10 | G: 2

Cc1cccc(C)c1OCCNC(=O)CCC(=O)c1ccccc1
  A: 4 | B: 5 | C: 3.1 | D: -11 | E: 2400 | F: 1 | G: 7

CCOC(=O)C1=CN(Cc2ccco2)S(=O)(=O)N(C)C1c1cccc(OC)c1 (configuration not stated)
  A: . | B: 1 | C: -1.0 | D: -9 | E: 3874 | F: 0 | G: 3

COCCNCCCOc1ccc(C)cc1Br
  A: 12 | B: -3 | C: 8.7 | D: -7 | E: 2104 | F: 0 | G: -2

O=[N+]([O-])c1ccccc1C=Nn1c(COc2ccccc2)n[nH]c1=S
  A: . | B: -2 | C: -2.0 | D: . | E: . | F: -1 | G: 3

CCOC(=O)c1cc(CC)sc1/N=C/C1=C(O)CCCC1=O
  A: 1 | B: . | C: . | D: -13 | E: 9508 | F: . | G: .

CCOc1ccc(N(CC(=O)NCCSCc2ccc(Cl)cc2)S(C)(=O)=O)cc1
  A: -2 | B: 4 | C: 4.6 | D: -7 | E: . | F: 7 | G: 1

O=C(c1cccc(C(F)(F)F)c1)C1CCCN(C(=O)CCCN2CCCC2=O)C1 (configuration not stated)
  A: -7 | B: 5 | C: 0.6 | D: -29 | E: 2498 | F: 7 | G: -3

O=C(CSc1ccccn1)N1CCN(c2ccccc2)CC1
  A: 4 | B: 4 | C: 2.4 | D: -19 | E: 16913* | F: 21 | G: 6

O=C(CC1CCCCC1)N1CCN(c2ccccn2)CC1
  A: 1 | B: 8 | C: 2.7 | D: -17 | E: 5099 | F: 17 | G: 8

CCCN(CCC)C(=O)Nc1ccc(F)cc1F
  A: -7 | B: 1 | C: 7.2 | D: -24 | E: 4482 | F: 4 | G: 5

O=S(=O)(c1ccccc1)c1nc(-c2ccccc2F)oc1NCc1cccnc1
  A: -6 | B: 2 | C: -0.5 | D: -6 | E: 3468 | F: 5 | G: -5

Cc1cc(/C=N/NC(=O)COc2cccc3cccnc23)c(C)n1-c1ccc(O)cc1
  A: 11 | B: . | C: . | D: -25 | E: 2129 | F: . | G: .

COc1ccc(-c2cc(-c3nnc(COC(=O)C4CC4C)o3)c3ccccc3n2)cc1OC (configuration not stated)
  A: 12 | B: -16 | C: -0.3 | D: -14 | E: 2097 | F: -2 | G: 3

C[N+]1([O-])C2CC(OC(=O)C(CO)c3ccccc3)CC1C1OC12 (configuration not stated)
  A: . | B: 2 | C: 6.3 | D: . | E: . | F: 0 | G: -2

Cc1csc(SCC(=O)Nc2ccc(C)c(F)c2)n1
  A: . | B: 1 | C: 2.3 | D: . | E: . | F: 9 | G: 0

Cc1ccc(S(=O)(=O)N2CCN(c3nc(CN4CCCC4)nc4sc(C)c(C)c34)CC2)cc1
  A: . | B: -4 | C: 3.1 | D: -17 | E: 4889 | F: 8 | G: 14

O=C(Cn1cnc2ccccc21)OCC(=O)N1CCc2ccccc2C1
  A: -11 | B: 10 | C: 14 | D: -12 | E: 3868 | F: . | G: .

COc1ccccc1NC(=O)CSc1n[nH]c(-c2ccccn2)n1
  A: 5 | B: -4 | C: 0.9 | D: -13 | E: 3271 | F: 4 | G: -1

CC(C)c1ccccc1OCCCCN1CCCCC1
  A: 9 | B: 5 | C: 2.6 | D: -41 | E: 6174 | F: 16 | G: 0

N#CCCN(C(=S)NC(=O)c1cccs1)c1ccccc1F
  A: . | B: 2 | C: 1.2 | D: 9 | E: 5638 | F: -2 | G: 6

Cc1cccc(NC(=O)CSCC(=O)N(C)CCOc2ccc(Cl)cc2)c1
  A: 7 | B: -2 | C: 2.4 | D: -6 | E: ? | F: 4 | G: 2

CC(=O)C1CCC2C3CC(O)C4=CC(=O)CCC4(C)C3C(=O)CC12C (configuration not stated)
  A: . | B: 7 | C: 5.1 | D: -14 | E: 3163 | F: 5 | G: 5

CC(C)(C)n1nc(-c2ccc(F)cc2)c2c(N)ncnc21
  A: 6 | B: 33 | C: 3.4 | D: 16 | E: 3263 | F: 4 | G: 10

CC(=O)c1ccc(NC(=O)CSc2nnc(C3CC3)n2C)cc1
  A: -10 | B: -4 | C: -2.6 | D: -4 | E: 5385 | F: 8 | G: 18

COc1ccc2oc(-c3ccccc3[N+](=O)[O-])cc(=O)c2c1
  A: 32 | B: 6 | C: 1.8 | D: -30 | E: 3442 | F: 8 | G: 10

O=C(O)c1ccc(N2N=C(c3ccccc3)CC2c2ccccc2)cc1 (configuration not stated)
  A: 8 | B: -17 | C: 11 | D: -23 | E: 2826 | F: 10 | G: 5

Nc1nc2ccccc2n1/N=C/c1ccc([N+](=O)[O-])s1
  A: -4 | B: . | C: . | D: 16 | E: 2340 | F: . | G: .

COc1cccc(NC(=O)CN2C(=O)NC3(CCCCCC3)C2=O)c1
  A: . | B: 3 | C: 3.6 | D: 0 | E: 2989 | F: -2 | G: 9

CC(NC(=O)CSC(=S)N1CCCC1)c1ccc(S(N)(=O)=O)cc1 (configuration not stated)
  A: 1 | B: -3 | C: -0.6 | D: -17 | E: 5201 | F: -1 | G: 7

Later entries:
Screens by letter – A = BJeLR lethal; B = ugtP null kill; C = RN4220 kill; D = PrP UTR inh; E = Bead autofluor; F = Mtb hypoxia rep; G = Mtb hypoxia rep growth
O=C(CSc1ccc(-c2cccs2)nn1)c1cccs1
  A: -13 | B: 10 | C: -14 | D: -75 | E: 4412 | F: 3 | G: 11

CCOC(=O)CSc1nnc(-c2ccccc2NC(=O)c2ccccc2)o1
  A: 1 | B: 5 | C: 2.9 | D: -2 | E: 11034 | F: 8 | G: 6

CC(C)N1CCc2c(sc(NC(=O)c3ccc(S(=O)(=O)N4CCc5ccccc54)cc3)c2C(N)=O)C1
  A: 4 | B: -29 | C: -21 | D: -8 | E: 6147 | F: 11 | G: 9

COC(=O)C1CCN(C(=O)Cc2ccc(C)cc2)CC1
  A: -3 | B: 10 | C: 2.7 | D: -3 | E: 4316 | F: . | G: .

Cc1ccccc1NC(=S)NC1CC2CCC(C1)N2Cc1ccco1 (configuration not stated)
  A: -8 | B: 10 | C: 6.0 | D: -18 | E: 5832 | F: 12 | G: -1

CCOC(=O)/C(=C\c1ccccc1)C(=O)c1cc(C(C)=O)c(Nc2ccccc2)s1
  A: 6 | B: 6 | C: -1.5 | D: -44 | E: 10303 | F: 6 | G: 3

CCO[C@@H]1OC(C(N)=O)=C[C@H](c2ccccc2)[C@H]1CCCO
  A: -17 | B: . | C: . | D: -7 | E: 3711 | F: . | G: .

Cn1nc(C(=O)NC(C)(C)C)c2ccccc21
  A: 9 | B: 4 | C: -0.9 | D: -5 | E: 2000 | F: -2 | G: -2

CC(C)(C)c1ccc(S(=O)(=O)N2CCCC2C(=O)NC2=NCCS2)cc1 (configuration not stated)
  A: 6 | B: 7 | C: 2.6 | D: -2 | E: 3347 | F: -3 | G: -3

CCCC(=O)CN1C(=O)C2(OCCO2)c2ccccc21
  A: -5 | B: -6 | C: 2.8 | D: -33 | E: 22726* | F: 5 | G: 5

COc1ccc(CNc2ccccn2)c(O)c1
  A: -2 | B: 13 | C: 1.3 | D: -15 | E: 3945 | F: 3 | G: -2

Cc1nn(-c2ccccc2)c2nc(Cl)c(C(=O)O)cc12
  A: -1 | B: 11 | C: -0.7 | D: -28 | E: 2472 | F: -1 | G: 1

COc1ccccc1C(=O)NCCC(=O)N1CC(=O)Nc2ccccc21
  A: 3 | B: 8 | C: 4.2 | D: -3 | E: 2117 | F: . | G: .

COc1cccc(C2Nc3ccccc3C(=O)N2Cc2ccccc2)c1 (configuration not stated)
  A: -3 | B: 10 | C: 2.9 | D: -18 | E: 3783 | F: 5 | G: 12

CC(C)CCNC(=S)Nc1ccccc1F
  A: -5 | B: -6 | C: 2.8 | D: 4 | E: 2483 | F: 9 | G: -1

O=C(COc1c(F)c(F)c(C(F)(F)F)c(F)c1F)Nc1ccc(N2CCOCC2)c(Cl)c1
  A: 2 | B: -32 | C: -6.9 | D: -3 | E: 3212 | F: -12 | G: -14

O=C(CSc1nnc(C2CC2)n1Cc1ccccc1)c1cc2ccccc2o1
  A: -4 | B: 9 | C: 4.5 | D: -6 | E: 4367 | F: 5 | G: 10

O=C(Nc1ccc(Br)c2cccnc12)c1ccc(Cn2cc(Cl)cn2)o1
  A: 1 | B: 10 | C: -1.8 | D: -13 | E: 2740 | F: 1 | G: 2

O=C(NCC(c1ccco1)N1CCOCC1)C1CCCCC1 (configuration not stated)
  A: 7 | B: 3 | C: 2.2 | D: -17 | E: 5682 | F: 0 | G: -4

COc1ccc(OC)c(NC(=O)CCC(=O)Oc2ccc(C)cc2)c1
  A: 3 | B: 1 | C: 1.4 | D: -7 | E: 3737 | F: 3 | G: -4

CC1CCC(NC(=O)c2cc(S(=O)(=O)N(C)C)ccc2N2CCCC2)CC1 (configuration not stated)
  A: -3 | B: 8 | C: 1.9 | D: -27 | E: 4379 | F: -3 | G: -8

Screens deposited in PubChem by several laboratories.
